High-throughput results deposited in PubChem by several laboratories.
Beta apoptosis: beta cell apoptosis inhibition. protection from apoptosis, % (concentration not given with the values). 0.8% of 300,000 active. INS-1E cytokine-induced death, ATP luminescence, 48 h; percent of positive-control rescue, neutral wells zero. AID 435005;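 active = all replicates at 75% or more, or half of them and the mean; inconclusive = half reach 75% but not the mean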;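 note: 0% = cytokine-treated negative control wells and 100% = positive control rescue; higher means more ATP so stronger rescue from cytokine killing; wells of about 40 µL received 100 nL stock; the first replicate is given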
Beta2AR agonist: activates human beta-2 adrenergic receptor causing internalization; P07550; Am2.2-beta2AR cells, FAP receptor internalization, flow cytometry; reference of the scale not given here; response, % (no concentration beside the values); 0.43% of 340,000 active; AID 504454;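 active = response above a set limit, near 3 SD of response in nonfluorescent compounds, cut at about 42% in these data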;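 note: stock transfer was 100 nL into about 11 µL; a reference agonist was the positive control; negative values mostly stem from fluorescent compounds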
Target sequence (P07550 whole entry, looked up): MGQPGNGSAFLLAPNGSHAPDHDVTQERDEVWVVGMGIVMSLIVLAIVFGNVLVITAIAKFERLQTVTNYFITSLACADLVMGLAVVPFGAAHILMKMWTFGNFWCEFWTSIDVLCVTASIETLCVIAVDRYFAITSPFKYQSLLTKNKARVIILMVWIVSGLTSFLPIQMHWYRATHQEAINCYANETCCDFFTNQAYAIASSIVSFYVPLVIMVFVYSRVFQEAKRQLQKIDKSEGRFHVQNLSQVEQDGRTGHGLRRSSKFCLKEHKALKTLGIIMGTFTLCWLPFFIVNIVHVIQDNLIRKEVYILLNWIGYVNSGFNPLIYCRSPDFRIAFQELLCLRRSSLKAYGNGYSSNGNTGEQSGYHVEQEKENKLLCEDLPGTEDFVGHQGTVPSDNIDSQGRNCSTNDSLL
Calb FLC: affects C. albicans growth with fluconazole; C. albicans CaCi-2 (fluconazole-resistant clinical isolate) + fluconazole, Alamar Blue growth, 48 h; growth inhibition, % (test concentration not listed); 0.57% of 300,000 active;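 active = most replicates above 75%; inconclusive = exactly half above 75%; inactive = most below 75%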;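 note: all wells also contain fluconazole at 8 µg/ml as a sub-toxic cotreatment; 0% = median of DMSO wells and 100% = median of geldanamycin control wells; wells of about 8 µL received 7.5 nL stock; the first replicate is given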
A1 inh: inhibitors of the anti-apoptotic protein A1, read as caspase activation | MEF A1-2A-BIM cells, Caspase-Glo 3/7 luminescence, 3 h; percent of clofoctol response, vehicle zero | 0.066% of 330,000 active | AID 2462 | caspase activation, % (test concentration not listed);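 active = over half of replicate activation scores above 10%, or exactly half above 10 with the replicate mean above 10; inconclusive = replicate mean below 10 yet half the replicates above 10; inactive = over half of replicates below 10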;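 note: wells of about 30 µL received 50 nL stock; many hits fall short of the cut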
rRNA inh HTS: selective bacterial rRNA inhibition in E. coli; E. coli WT GFP vs humanized-ribosome RFP mutants, fluorescence, 24 h; active compounds read low; DMSO median 0, no signal -100; GFP signal change (wild-type ribosome), % (test concentration not listed); 1.6% of 350,000 active;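 active = significant combined selectivity score with lowered wild-type GFP, culture density cut under 30%, mutant RFP and density less affected; inactive = any of these conditions unmet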; note: one replicate is shown; some compounds called inactive have numbers as strong as hits
LANA-H2B inh: blocks KSHV LANA binding to histone H2A/H2B; Q9QR71; cell-free LANA-H2A/H2B peptide, fluorescence polarization; inhibition, % (concentration not given with the values); 0.6% of 320,000 active; AID 2629; in the data active = inhibition mostly above about 10%, no sharp cut-off; inactive = mostly below about 6.7%;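 note: stock transfer was 7.5 nL into about 10 µL; 0% = median of vehicle wells and 100% = median of positive control wells; one replicate is shown; the record names a cut of 25% in any replicate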
ALR inh: blocks human ALR sulfhydryl oxidase activity | AID 485317 | purified ALR, DTT oxidation, H2O2 HRP-luminol luminescence | P55789 | 3.8% of 290,000 active | inhibition, % (test concentration not listed);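 active = mean and each replicate at 75% or more; inconclusive = only one of the two met; inactive = neither met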;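 note: stock transfer was 7.5 nL into about 7.5 µL; 0% = neutral wells and 100% = wells with inactivated enzyme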
Target sequence (P55789 whole entry, looked up): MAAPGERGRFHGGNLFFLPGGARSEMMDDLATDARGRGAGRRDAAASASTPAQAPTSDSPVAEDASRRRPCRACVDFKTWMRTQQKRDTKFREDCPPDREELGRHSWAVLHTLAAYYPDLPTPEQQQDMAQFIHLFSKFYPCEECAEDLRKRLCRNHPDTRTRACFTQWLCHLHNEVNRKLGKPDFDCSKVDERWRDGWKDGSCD
T cruzi inh: blocks replication of Trypanosoma cruzi. T. cruzi beta-gal in NIH3T3, luminescence, 90 h. inhibition, % (concentration not given with the values). 1.4% of 300,000 active;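 active = mean inhibition across valid replicates above about 55%, limit read from the data; inconclusive = mean below that limit but half or more replicates reach it; inactive = mean below it, under half of replicates reach it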;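 note: signal also drops with host cell toxicity which is not excluded here; 0% = plate median of DMSO wells and 100% = zero luminescence signal; higher percent means less beta-gal luminescence so fewer parasites; stock transfer was 50 nL into about 50 µL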
rRNA inh HTS OD600: second read-out of rRNA inh HTS, no call of its own (marks repeat the call); OD600 change, %; measured here: OD600 growth;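 optical density of the mix in the first replicate; 0 = DMSO median and -100 = no signal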
rRNA inh HTS RFP: further read-out of rRNA inh HTS, marked with its call; RFP signal change, %; measured here: RFP humanized mutant strains;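 first replicate; 0 = DMSO median and -100 = no signal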
An asterisk follows results filed as active; u = inconclusive; x = no result given; & = joins results of further samples. An excerpt; the hit share may differ from the screen's.

structure,rRNA inh HTS RFP,Beta2AR agonist,rRNA inh HTS OD600,ALR inh,LANA-H2B inh,Calb FLC,T cruzi inh,Beta apoptosis,rRNA inh HTS,A1 inh
O=C(NCc1ccccc1)C1CCCN(S(=O)(=O)c2cccc3nsnc23)C1 (configuration not stated),-0.8,5,3,-2,-2.7,1,-1,-17,13,0.1
O=C(O)c1ccc(NC(=O)c2cccs2)cc1,x,1,x,-5,1.7,27,1,-1,x,-8.4
Cc1ccc(-c2nc(SCC(=O)NCCN3C(=O)CSC3=O)[nH]c2-c2ccc(C)cc2)cc1,x,x,x,88*,-5.9,-12,15,-12,x,-0.1
COc1ccc(C(=O)NCCC2=CCCCC2)cc1,x,-5,x,-11,0.3,0,-17,3,x,-1.7
COc1ccc(CCNC(=O)c2cc3c(=O)n4ccccc4nc3n(CCCN3CCOCC3)c2=N)cc1OC,1.9,4,12,15,3.2,-11,9,6,17,0.6
FC(F)(F)c1cnc(/C=C/Nc2ccccc2Cl)c(Cl)c1,x,-5,x,-6,-3.3,22,-4,-4,x,-0.6
Cc1ccc(NC(=S)N(CCN2CCCCC2)Cc2ccco2)cc1Cl,18,3,-8,x,5.4,u,-32,-2,-18,1.1
COc1ccccc1C(=O)NCCCn1cc(Br)c(C)n1,x,-3,x,x,2.5,-3,6,2,x,0.3
Clc1ccccc1C1=CC(c2ccco2)n2ncnc2N1 (configuration not stated),6.0,6,7,12,3.7,31,-10,-1,-1,-0.1
C=CCn1c(SCC(=O)Nc2cc(C)on2)nnc1-c1ccccc1OC,1.0,2,-6,-14,-0.9,x,x,-8,-4,1.2
CCNc1c(NS(=O)(=O)c2ccc(OC)c(Cl)c2)c(=O)oc2ccccc12,-1.1,-17,11,-6,-0.9,6,-9,-5,18,-0.7
CCOCCCn1c(=NC(C)=O)c(C(=O)OCC)cc2c(=O)n3ccccc3nc21,1.0,0&-27,16,-4,0.6,-4,10,-2,9,-0.1
Brc1ccc(-c2csc(-c3c[nH]c4ccccc34)n2)cc1,x,-2,x,-4,-2.7,-11,15,-1,x,0.0
Cc1ccc(NC(=O)c2ccco2)c(NC(=O)Cc2cccs2)c1,x,-2,x,16,-0.5,16,-13,-4,x,1.0
COc1ccc(CN2C(=O)C(CC(C)C)Nc3ncnc(N4CCN(c5ccccn5)CC4)c32)cc1 (configuration not stated),-14,6,-15,-4,2.7,1,7,10,-9,-0.1
CCCCn1c(N)c(N(CC)C(=O)c2cc(S(=O)(=O)N3CCCCCC3)ccc2OC)c(=O)[nH]c1=O,0.2,16,8,-2,5.7,6,-1,3,9,0.1
Cc1sc(NC(=O)C2CCCCC2C(=O)O)c(C(N)=O)c1C (configuration not stated),x,4,x,0,1.9,-30,-16,-1,x,-1.0
COC(=O)c1c(NC(=O)Cc2cccs2)sc(C(=O)N2CCCCC2)c1C,x,-7,x,-3,0.1,2,23,-2,x,-0.4
Cc1nnc2n1NC(c1ccc(Cl)cc1)C(C(=O)N(C)C1CCCCC1)S2 (configuration not stated),x,1,x,-2,-4.1,-2,4,-3,x,0.6
O=C(O)/C(=C\c1cccs1)Sc1nnc(-c2ccc(F)cc2)o1,1.8,1,14,-6,-2.7,-23,-6,14,-3,-0.2
COc1ccccc1/C=N/N1C(=O)C2C3C=CC(CC3)C2C1=O (configuration not stated),0.0,-14,6,-7,-1.9,1,6,-2,14,0.2
CC(C)c1ccc(NC(=S)Nc2ccc(OC(F)(F)F)cc2)cc1,10,9,-37,x,-1.3,-11,44,9,-33,0.7
CC(=O)Nc1cccc(-c2csc(NCc3ccco3)n2)c1,x,-2,x,x,-3.9,54,-1,-1,x,0.1
Cc1nnc(NC(=O)Cn2nc(C)c3ccccc3c2=O)s1,-1.6,-2,14,-3,0.4,5,-7,-1,2,-0.7
CCN(CC)S(=O)(=O)c1ccc(N(C)Cc2ccc(C(F)(F)F)cc2)nc1,x,0,x,21,1.2,-1,4,46,x,-0.2
O=C(COC(=O)CN1C(=O)C2CCCCC2C1=O)Nc1cc(S(=O)(=O)N2CCOCC2)ccc1Cl (configuration not stated),2.7,4,4,x,x,-10,-29,-9,3,0.7
O=C(CCOc1ccccc1)Nc1ccc(Br)cc1,-5.0,-11,24,-2,1.1,-9,2,1,12,0.1
Cc1ccc(N(C(=O)c2cnccn2)C(C(=O)NC2CCCCC2)c2ccc(O)cc2)cc1 (configuration not stated),1.0,-3,-12,0,-1.7,4,-9,x,3,0.5
CCn1c(SCC(=O)Nc2nccc(C)n2)nc2ccccc21,-7.5,3,-3,4,-0.9,-11,0,4,-2,0.0
CC(=O)NC(Cc1ccccc1)C(=O)OCC(=O)c1ccc(Cl)cc1 (configuration not stated),x,2,x,-4,0.0,2,-9,-8,x,0.3
CC(=O)c1ccc(NC(=O)c2ccc(C)c(S(=O)(=O)N3CCOCC3)c2)cc1,-1.9,18,6,x,-5.1,0,6,-2,12,-0.8
COc1cc(/C=N/NC(=S)NCc2ccccc2)ccc1OCC#N,x,-20,x,-4,0.8,-4,-12,-11,x,-0.3
Cc1nc(Nc2ccccc2)sc1-c1ccccc1,x,-5,x,x,4.3,-38,10,1,x,-8.1
CC(C)C(=O)Nc1nnc(SCC(=O)NCc2ccc3c(c2)OCO3)s1,-1.8,-3,7,x,8.4,u,-6,-1,7,0.6
CCCCC[C@H]1CN(Cc2ccccc2)C(=O)[C@@H]1CC(=O)NCc1ccccc1,-16,-4,-80,-14,4.8,25,22,3,-53,-0.7
CCCCN(C)c1c(N2CCC(C(=O)OCC)CC2)c(=O)c1=O,1.3,8,7,x,-2.8,3,-21,-8,4,2.8
CCCn1c(N)c(N(CCOC)C(=O)c2cc3c(s2)CCC(CC)C3)c(=O)[nH]c1=O (configuration not stated),-3.7,-10,-22,x,-0.8,x,x,0,4,-0.7
O=C(C1CCCO1)N1CCN(C(=S)Nc2cccc(Cl)c2)CC1 (configuration not stated),x,-1,x,x,-4.8,-24,-22,-6,x,0.0
COc1cc(/C=N/NC(=O)c2cc(C34CC5CC(CC(C5)C3)C4)[nH]n2)ccc1O,x,21,x,53,0.8,19,2,-6,x,-1.1
O=C(CN1C2CCCC1CC(NC(=O)C1CCCCC1)C2)Nc1ccccc1 (configuration not stated),-1.0,-3,-9,2,-4.6,-16,20,6,-1,-0.4
Cc1cc(=O)n2c(C)n[nH]c2n1,x,10,x,-3,-0.5,5,x,-11,x,0.6
COc1ccc(OC)c(S(=O)(=O)NCC(=O)O)c1,-2.7,-6,7,-6,4.7,1,2,-4,14,0.0
O=C1COc2ccc(C(=O)COC(=O)CNC(=O)c3ccccc3)cc2N1,8.6,-2,9,-3,7.5,-9,5,-4,19,-0.6
COC(=O)COc1ccc(S(=O)(=O)NCc2ccc3c(c2)OCO3)cc1,4.2,-2,4,-3,1.1,-18,-6,4,12,0.5
CN(C)S(=O)(=O)c1cccc(NC(=O)CCc2nc3cc(S(=O)(=O)N4CCOCC4)ccc3n2C)c1,7.0,-1,6,x,x,0,-4,2,4,-0.2
COc1cc(NC(=O)Cc2ccccc2)ccc1NC(=O)Cc1ccccc1,3.7,-4,3,1,-3.3,-6,-8,x,3,0.8
COc1ccc(C(=O)CSc2nnn(-c3cccc(NC(C)=O)c3)n2)cc1,x,1,x,x,0.5,-3,-10,-1,x,0.1
Cc1cc(NC(=O)C(C)Oc2ccc(Cl)cc2Cl)no1 (configuration not stated),0.6,-1,-13,42,2.2,-4,-8,-4,-1,-0.6
Cc1ccccc1Nc1nnc(SCC(=O)NCc2cccs2)s1,x,-5,x,7,0.5,1,-10,3,x,-3.2
O=C(COC(=O)C12CC3CC(CC(Br)(C3)C1)C2)Nc1cccnc1Cl,2.5,-9,-7,-1,1.2,4,9,0,-17,0.8
COc1ccc(OCc2cc(C(=O)N(Cc3nccn3C)C(C)C)no2)c2ccccc12,7.6,6,-14,-11,-1.3,6,18,-4,5,-2.5
O=C(NCC1CCCO1)c1ccccn1 (configuration not stated),x,9,x,-1,-2.1,-4,-16,1,x,0.1
COc1ccc(N(CC(=O)NCc2ccco2)C(=O)CCC(=O)Nc2ccccn2)cc1,3.2,-5,6,x,x,7,-2,x,11,x
COc1ccc(NC(=O)CC2C(=O)N(c3ccccc3)C(=O)N2CCc2cccs2)cc1 (configuration not stated),2.2,0,-11,x,x,4,-6,8,-18,1.1
COc1cccc(-n2c(=O)c3sccc3n(CC(=O)NC3CCCC3)c2=O)c1,2.8,-1,10,x,0.4,-6,-13,3,9,0.0
S=C(Nc1ccc2c(c1)OCO2)Nc1ccccc1Cl,-3.9,17,-6,4,-1.6,-16,-16,2,10,0.3
Cc1ccc2c(c1)-n1c(nc3ccccc3c1=O)C(Cc1ccccc1)NC2=O (configuration not stated),-13,x,-10,-1,-1.0,x,x,-3,-15,0.0
COc1ccc(CNC(=O)COc2ccc(S(=O)(=O)N3CCOCC3)cc2C)cc1,-0.2,0,4,-10,-3.4,-4,0,x,2,-0.2
CC(Sc1ccc(Cl)cc1)C(=O)NNC(=O)c1csc(N2CCOCC2)n1 (configuration not stated),7.3,-2,-9,0,6.1,0,1,4,1,0.5
OCCC1CN(C/C(Cl)=C/c2ccccc2)CCN1C1CCCC1 (configuration not stated),3.6,-2,9,-6,1.1,-17,16,-4,18,0.1

(continued)
structure,rRNA inh HTS RFP,Beta2AR agonist,rRNA inh HTS OD600,ALR inh,LANA-H2B inh,Calb FLC,T cruzi inh,Beta apoptosis,rRNA inh HTS,A1 inh
CC1=C(CC(=O)c2ccc(Cl)cc2)C(=O)c2ccccc2C1=O,x,-3,x,-27,1.6,18,-13,99*,x,-0.6
Cc1cc(C2C(=O)CC(=O)CC2c2ccccc2)on1 (configuration not stated),x,-1,x,52,2.9,-6,-17,-3,x,0.0
O=C1/C(=C\c2cccs2)N=C(c2cccs2)N1Nc1ccccc1,7.8,8,-11,-4,1.2,6,19,x,11,-0.9
COC1(OC)C(/C=C/c2ccc(C)cc2)C(C#N)(C#N)C1(OC)OC (configuration not stated),x,27,x,x,2.6,6,-56,-12,x,0.4
CC1Cc2nc(SCC(=O)Nc3nccs3)n(Cc3ccccc3)c(=O)c2S1 (configuration not stated),4.0,-2,1,42,3.0,-5,8,8,6,0.3
Cc1cccc(Oc2ccc(NS(=O)(=O)c3ccc(C)c(C(=O)O)c3)cc2)c1,3.6,-1,-9,9,-0.3,x,x,-2,-8,0.4
CC(=O)N1Cc2ccccc2C(C)CC12CCCC2 (configuration not stated),x,-6,x,0,0.2,0,4,-5,x,-0.5
